Assay outcomes deposited in PubChem by National Center for Advancing Translational Sciences (NCATS).
TSHR ag: agonists of human thyroid stimulating hormone receptor; Potency, µM (top dose mostly 57.1 µM), for inactives: at the top dose activation, usual class: activators; HEK293-CNG-TSHR cells (CNG channel as cAMP sensor), membrane potential dye, cAMP; AID 926; 0.48% of 73,000 active; active = well fitted activation curve of enough size with the parental cells flat; inconclusive = any curve in the parental cells; inactive = parental cells flat and receptor cells flat or falling; note: potency is the fitted concentration of half-maximal effect; % of control where 0% means no effect; weak receptor curves with flat parental cells got no call and are not listed
Target sequence (P16473 whole entry, looked up): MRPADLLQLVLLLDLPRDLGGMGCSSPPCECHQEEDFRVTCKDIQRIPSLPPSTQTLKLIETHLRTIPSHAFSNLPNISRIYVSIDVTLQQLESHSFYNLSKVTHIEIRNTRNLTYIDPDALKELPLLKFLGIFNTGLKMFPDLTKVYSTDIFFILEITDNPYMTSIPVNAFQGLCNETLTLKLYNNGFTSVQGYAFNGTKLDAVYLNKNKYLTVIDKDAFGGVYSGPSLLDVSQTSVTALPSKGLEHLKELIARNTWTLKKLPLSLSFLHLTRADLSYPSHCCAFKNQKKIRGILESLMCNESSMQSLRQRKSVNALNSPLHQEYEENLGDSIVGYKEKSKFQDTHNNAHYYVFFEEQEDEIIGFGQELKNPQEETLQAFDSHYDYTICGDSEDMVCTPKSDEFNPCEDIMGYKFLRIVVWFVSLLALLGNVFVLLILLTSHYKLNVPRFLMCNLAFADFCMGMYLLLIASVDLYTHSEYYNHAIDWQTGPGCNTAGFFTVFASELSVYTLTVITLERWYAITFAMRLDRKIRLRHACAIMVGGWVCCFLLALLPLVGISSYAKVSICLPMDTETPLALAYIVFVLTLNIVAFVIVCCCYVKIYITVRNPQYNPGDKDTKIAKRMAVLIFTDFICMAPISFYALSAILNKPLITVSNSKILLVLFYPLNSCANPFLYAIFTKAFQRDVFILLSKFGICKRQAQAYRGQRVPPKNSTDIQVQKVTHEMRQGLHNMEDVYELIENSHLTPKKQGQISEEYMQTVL
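HEK 293 cells stably expressing TSHR and a modified CNG channel, with CNG-only parental cells as counterscreen, were preloaded 60 min at room temperature with membrane potential dye containing 100 uM RO 20-1724. Compound exposure was 30 min, and depolarization was read as fluorescence at 590 nm.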
A488 autofl: compound fluoresces in the A488 spectral region. compound autofluorescence, A488 spectral region, dye equivalency; stronger effect = higher value. max dye equivalency, M. 0.1% of 59,000 active; active = above 10 nM dye equivalent; inconclusive = 1 to 10 nM; inactive = 1 nM or less; about half of its hits are not listed in these tables;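 note: highest value over a series up to 38 µM; compound alone in buffer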
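Compound autofluorescence was read in 100 mM Tris pH 8.0 after 15 min at room temperature, ex 480 nm/em 540 nm. Intensities were converted to A488 dye-equivalent concentration using an on-plate six-point A488 standard curve.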
AID923: qHTS Assay for Allosteric/Competitive Inhibitors of Caspase-1: Spectroscopic Profiling in AFC Spectral Region. compound fluorescence, AFC spectral region (405/520 nm); almost no hit is shown here. 1.1% of 75,000 active. Potency, µM (doses to about 57.5 µM), for inactives: at the top dose fluorescence increase, most hits filed as activators. AID 923, 2007; active = well fitted activation curve with a large enough effect; inconclusive = small, poorly fitted or top-dose-only effect;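 note: potency is the fitted concentration of half-maximal effect; 0% is about no effect; scaled to a free AFC standard on each plate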
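Baseline compound fluorescence (AFC region, 405 nm ex/520 nm em) taken from the intercept of kinetic reads with 50 nM caspase-1 and 5 uM Ac-WEHD-AFC; normalized to an on-plate AFC standard curve; compounds titrated up to 57 uM.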
Resorufin autofl: resorufin region autofluorescence; Compound fluorescence, resorufin region 547/598 nm, buffer; stronger effect = higher value; max dye-equivalent concentration, M; 0.04% of 59,000 active; active = above 10 nM dye equivalent; inconclusive = 1 to 10 nM; inactive = 1 nM or less; a few of its hits are not listed in these tables; note: highest value over a series up to 38 µM
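Dye-equivalent concentration values derive from comparing each well's 547/598 nm fluorescence against resorufin standards included on every plate. Incubation was 15 min at room temperature in 100 mM Tris, pH 8.0.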
A647 autofl: compound autofluorescence in A647 spectral region. max dye-equivalent concentration, M. 59,000 tested, under 10 active. Compound fluorescence, A647 channel (570/671 nm), Tris buffer; active means above 1 µM dye equivalent; inconclusive means 0.1 to 1 µM; inactive means 0.1 µM or less;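 note: values scaled relative to a standard on each plate; highest value over a series up to 38 µM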
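Compounds pinned into 100 mM Tris pH 8.0, 15 min at room temperature, then read with 570 nm excitation/671 nm emission filters. Fluorescence normalized to an on-plate six-point Alexa 647 standard curve, giving dye-equivalent concentration per compound concentration.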
* = called active by the depositor; i = inactive; ? = inconclusive; · = not tested or not shown; & = joins results of further samples; [ ] = another dose, or the depositor's remark. The list is partial, so the mix of outcomes need not match the whole.

nr	mol	A647 autofl	Resorufin autofl	A488 autofl	TSHR ag	AID923
1	Nc1cccc2cc(S(=O)(=O)Nc3ccc(C(=O)O)cc3)ccc12	4.6e-08	i	i	4%[11.4 µM]	5.7%[11.5 µM]
2	Cn1c(=O)c2ncn(CC(=O)Nc3ccc4c5c(cccc35)CC4)c2n(C)c1=O	1e-09	i	i	2%	-0.7%
3	CC(=O)C1=C(O)C(=O)N(Cc2ccco2)C1c1ccc(F)cc1 (configuration not stated)	1e-09	i	i	11%	1.1%
4	C=C(C)Cn1c(SCC(=O)O)nc2c1c(=O)[nH]c(=O)n2C	·	·	·	-1%	2.2%
5	N#CC1=C(N)SC(N)=C(C#N)C1CCc1ccccc1	1.2e-08	i	i	?	7.0%
6	Cc1cc2n(n1)SC(Nc1ccccc1)N2 (configuration not stated)	1e-09	i	i	0%[11.4 µM]	0.3%
7	c1ccc2c(c1)Cn1c-2nc2ccccc21	1.2e-09	i	i	?	1.7%
8	Cc1ccnc(NC(=O)CCC2COc3ccccc3O2)c1 (configuration not stated)	1.8e-09	i	i	15%	0.2%
9	COc1ccc(/C(CC2(O)C(=O)Nc3ccccc32)=N\O)cc1 (configuration not stated)	3.6e-09	i	i	-3%	0.1%
10	O=C(O)c1ccccc1Nc1ccccc1	8.5e-09	i	i	?	-4.9%&0.8%
11	CCCc1[nH]nc2c1C(c1cccc(OC)c1)C(C#N)=C(N)O2 (configuration not stated)	4.6e-08	i	i	·	·
12	CCCCCOC(=O)C1=C(C)Nc2nnnn2C1c1ccc(OC)c(OC)c1OC (configuration not stated)	3.4e-09	i	i	22%	0.6%
13	C=CCNC(=O)C1CC(=O)N(c2ccc(Br)cc2)C1 (configuration not stated)	·	·	·	-2%	2.7%
14	O=C(NC1CCCCC1)c1ccc(Br)o1	·	·	·	?	-2.4%
15	CCCn1c(SCC(=O)c2ccc3c(c2)OCCO3)nc2c1c(=O)n(C)c(=O)n2C	1.9e-08	i	i	4%	0.6%
16	CCOC(=O)N1CCN(c2nc(-c3ccco3)cc(C(F)(F)F)n2)CC1	1.5e-08	i	i	?	-1.1%
17	CN(C)S(=O)(=O)c1ccc(C(=O)Nc2ccccc2OC(F)(F)C(F)F)cc1	2.5e-09	i	i	?	-2.5%
18	CCC(C)NC(=O)Cn1cccc1C(=O)c1ccccc1 (configuration not stated)	3.6e-08	i	i	7%	0.7%
19	CCCC(=O)Nc1ccc(-c2nc3cc(C)c(C)cc3o2)cc1	1e-09	i	i	1%[11.4 µM]	-1.7%
20	CCN(CCCc1ccccc1)CCCc1ccccc1	2.6e-09&1.3e-09	i	i	17%[25.6 µM]	3.3%
21	CCNc1nc(N)nc(Oc2ccc(OCCOc3ccc(Cl)cc3Cl)nn2)n1	7.8e-09	i	i	5%	2.5%
22	CN(C)Cc1ccccc1-c1nccc(N(C)Cc2ccco2)n1	1e-09	i	i	?	0.5%
23	CCc1nc2ccccc2c(C(=O)OCC(=O)NCCCN2CCCC2=O)c1C	1e-09	i	i	?	-0.1%
24	O=C(c1csnn1)N1CCC2(CCCN(c3ccccn3)C2)CC1	1e-08	i	i	?	1.0%
25	COC(=O)c1ccc2c(=O)n(CCCCCC(=O)N3CCN(c4ccc(F)cc4)CC3)c(=O)[nH]c2c1	1e-09	i	i	·	-0.2%
26	O/N=C/c1ccc(OCC(O)COc2ccc(/C=N/O)cc2)cc1	5.4e-08	i	i	·	·
27	COc1ccc(C2N(C(=O)c3ccccc3)CCN2C(=O)c2ccccc2)cc1	5e-09	i	i	?	0.9%
28	CC(=O)/C(C#N)=C1\NC(=O)C(Cc2ccccc2Cl)S1 (configuration not stated)	1.5e-08	i	i	·	·
29	COc1ccc(Cl)cc1NC(=O)CCN1CCN(c2ccccc2C)CC1	1e-09	i	i	?	0.2%
30	O=C(Nc1cccc(C(F)(F)F)c1)C1CCCN1S(=O)(=O)c1cccc2cccnc12 (configuration not stated)	1.7e-08	i	i	?	-1.9%
31	CC(=O)Nc1ccccc1NC(=O)CN(C)S(=O)(=O)c1ccc(C)cc1	3.1e-09	i	i	6%	-1.0%
32	CCCNC(=O)C(NS(=O)(=O)c1cccc2nsnc12)c1ccccc1 (configuration not stated)	9.1e-09	i	i	-10%	3.0%
33	COC(=O)C1C2C=CC3(CN(c4cccc(C)c4)C(=O)C13)O2 (configuration not stated)	1e-09	i	i	-1%	0.1%
34	Cc1nn(-c2ccccc2)c2c1C(c1ccc(F)cc1F)C(C#N)=C(N)O2 (configuration not stated)	7.3e-08	i	i	·	·
35	CCOc1cc(C2C(C#N)=C(N)Oc3n[nH]c(CC)c32)ccc1OCCN1CCOCC1 (configuration not stated)	1.6e-08	i	i	-1%	0.0%
36	CCOc1cc(N2CCOCC2)c(OCC)cc1NS(=O)(=O)c1ccc(Cl)s1	2.2e-08	i	i	-2%	-0.7%
37	CC(C)=CC(=O)Nc1ccccc1C(N)=O	1.2e-08	i	i	-8%	0.8%
38	CCOC(=O)c1c(C)n(C)c2ccc(OCC(N)=O)cc12	·	·	·	-4%	-2.1%
39	Cc1ccc(NC(=O)N2CCC(O)(c3ccc(Cl)cc3)CC2)cc1	4.4e-08	i	i	-11%	-1.6%
40	CCOC(=O)c1cnc2c(Cl)c(Cl)ccc2c1N1CCN(C)CC1	4.6e-09	i	i	-14%	0.7%
41	Cc1ccc(O)c(CC(C)C)n1	2.1e-08	i	i	4%	-1.0%
42	CCOC(=O)CSc1nc(CC)nc2ccccc12	2.1e-08	i	i	?	-0.7%
43	CC(C)OC(=O)c1ccc(NC(=O)C2C3CC4OC(=O)C2C4C3)cc1 (configuration not stated)	2.7e-09	i	i	-4%	1.6%
44	CCn1c(SCC(=O)Nc2nccs2)nnc1-c1ccccc1	4.9e-09	i	i	6%	-0.5%
45	CCc1ccc(CNc2ccc3c(c2)ncn3C)cc1	1e-09	i	i	-11%	0.8%
46	CCOC(=O)C1CCCN(c2c(N3CCN(c4cccc(Cl)c4)CC3)c(=O)c2=O)C1 (configuration not stated)	·	·	·	-4%	2.1%
47	CCCCOC(=O)Nc1nc(CC(=O)OCC)cs1	·	·	·	?	1.7%
48	Cc1cccnc1	·	·	·	-4%	-2.0%
49	O=C(NCc1ccccc1)NC1(C(=O)N2CCN(c3ncccn3)CC2)CCCCC1	1e-09	i	i	0%	-0.2%
50	Cc1ccc(S(=O)(=O)NC(CC(=O)NCc2ccco2)c2ccco2)cc1 (configuration not stated)	1e-09	i	i	-2%[11.4 µM]	-0.6%

Continuation:
nr	mol	A647 autofl	Resorufin autofl	A488 autofl	TSHR ag	AID923
51	Cc1ccc(C(=O)NCc2ccc(Cl)c(Cl)c2)o1	·	·	·	8%	3.7%
52	CC1CCN(C(=O)CN(C2CCCCC2)S(C)(=O)=O)CC1	2.9e-09	i	i	?	3.8%
53	O=C(NCc1ccccn1)c1ccc(N2CCCC2=O)cc1	1e-09	i	i	-3%	1.6%
54	CSc1nc2c(c(=O)[nH]1)C(c1cccs1)C1=C(CCCC1=O)N2 (configuration not stated)	2.7e-08	i	i	?	0.2%
55	Cc1ccc2c(C(=O)CN3CCCCC3CCO)c(C)[nH]c2c1 (configuration not stated)	1.8e-08	i	i	12%	0.9%
56	CN1Cc2c(N3CCOCC3)nc(SCc3ccccc3)c(C#N)c2CC1(C)C	1e-09	i	i	·	·
57	CCCNc1ncnc2nc[nH]c12	·	·	·	-7%	1.9%
58	CCOc1cccc(OCCOCCN(C)Cc2ccccc2)c1	·	·	·	?	1.5%
59	CCOC(=O)CN1CC23C=CC(O2)C(C(=O)Nc2ccc(OC)cc2OC)C3C1=O (configuration not stated)	·	·	·	0%	2.6%
60	COc1ccc2cc(CCNC(=O)c3c(-c4ccccc4Cl)noc3C)c(=O)[nH]c2c1	·	·	·	-11%	-4.7%

In the list so far, these have bromine:
nr	mol	A647 autofl	Resorufin autofl	A488 autofl	TSHR ag	AID923
13	C=CCNC(=O)C1CC(=O)N(c2ccc(Br)cc2)C1 (configuration not stated)	·	·	·	-2%	2.7%
14	O=C(NC1CCCCC1)c1ccc(Br)o1	·	·	·	?	-2.4%

More compounds follow:
nr	mol	A647 autofl	Resorufin autofl	A488 autofl	TSHR ag	AID923
61	O=C(Nc1nc2c(s1)CCCC2)C1CCCN1C(=O)c1cccs1 (configuration not stated)	1e-09	i	i	0%	-1.1%
62	Cn1ccnc1SCC(=O)Nc1ccc2c(c1)COC2=O	9.5e-09	i	i	-12%	1.1%
63	N#Cc1ccc(C(c2nnnn2CCc2ccccc2)N2CCCCCC2)cc1 (configuration not stated)	1e-09	i	i	?	-0.4%
64	O=C1CC(N2CCN(C(c3ccccc3)c3ccccc3)CC2)C(=O)N1 (configuration not stated)	·	·	·	-3%	0.1%
65	CCc1ccc2[nH]c(=O)c(CN(CCCN3CCOCC3)C(=O)Nc3ccc(F)cc3)cc2c1	2.1e-08	i	i	14%	-0.8%
66	C/C(NC1CCCCC1)=C(/C#N)C(=O)NCCN1CCOCC1	3.6e-08	i	i	?	0.6%
67	Cc1ccc(N(CC(=O)NC2CCCCCC2)S(=O)(=O)c2c(C)nn(C)c2C)cc1	1e-09	i	i	10%	0.8%
68	COc1ccc(NC(=O)N2CCCC3(CCN(C(=O)c4ccncc4)CC3)C2)cc1	3e-08	i	i	3%	-2.4%
69	CCNc1cc2n(c(=O)n1)CCc1cc(OC)c(OC)cc1-2	1.1e-08	i	i	7%	2.8%
70	C[C@@H]1C[C@H]2[C@@H]3CCC4=CC(=O)C=C[C@]4(C)[C@@]3(F)[C@@H](O)C[C@]2(C)[C@H]1C(=O)CO	2.5e-09	i	i	·	·
71	COc1ccc(N2CCN(C3CC(=O)N(C)C3=O)CC2)cc1 (configuration not stated)	·	·	·	-3%[11.4 µM]	0.5%
72	CN1CCN(c2ncc3ncc(=O)n(Cc4cccs4)c3n2)CC1	3.2e-09	i	i	-4%	7.1%
73	Cc1cc(C)cc(NC(=O)CCN2CC(C)OC(C)C2)c1 (configuration not stated)	9.8e-09	i	i	6%	1.6%
74	CC(=O)C1=C(C)NC(=O)NC1c1cc(Br)ccc1OCC(N)=O (configuration not stated)	1e-09	i	i	-8%	3.8%
75	COC(=O)c1ccc(NC(=O)CCN2CCN(c3ccccc3)CC2)cc1	2e-08	i	i	15%	-0.2%
76	COc1cc(Cc2cnc(N)nc2N)cc(OC)c1OC	1.8e-08&2.5e-08&1e-09	i	i	?	1.6%
77	C=CCSc1nnc(NC(=O)CSc2nc(CCC)cc(=O)[nH]2)s1	2.7e-08	i	i	0%	0.0%
78	CCCCC(CC)COCCCN (configuration not stated)	·	·	·	-4%	1.1%
79	COC(=O)c1ccc(CSc2nncn2C)cc1	3.4e-08	i	i	5%	-0.9%
80	Nc1c(S(=O)(=O)c2cccs2)c2nc3ccccc3nc2n1Cc1ccc2c(c1)OCO2	1e-09	i	i	-3%	14%
81	NS(=O)(=O)c1ccc(CNC(=O)C2CCCCC2)cc1	3.9e-08	i	i	9%	-3.2%
82	c1ccc(-c2onc3cc4c(cc23)OCCO4)cc1	·	·	·	?	8.0%
83	COCCCNC(=O)c1ccc(CNS(=O)(=O)c2ccc(NC(C)=O)cc2)cc1	1.3e-08	i	i	4%	-2.6%

A second format for some results above.
#80 Nc1c(S(=O)(=O)c2cccs2)c2nc3ccccc3nc2n1Cc1ccc2c(c1)OCO2
  A647 autofl: 1e-09
  Resorufin autofl: i
  A488 autofl: i
  TSHR ag: -3%
  AID923: 14%
#78 CCCCC(CC)COCCCN (configuration not stated)
  A647 autofl: ·
  Resorufin autofl: ·
  A488 autofl: ·
  TSHR ag: -4%
  AID923: 1.1%
#82 c1ccc(-c2onc3cc4c(cc23)OCCO4)cc1
  A647 autofl: ·
  Resorufin autofl: ·
  A488 autofl: ·
  TSHR ag: ?
  AID923: 8.0%
